Menin MLL FP FL – menin-MLL binding inhibition, fluorescein peptide | AID 1766 | 290,000 tested, under 10 active | FP activity change, % at 61.4 µM | Fluorescence polarization, fluorescein-MLL peptide displacement from menin; inconclusive = falling polarisation curve, or a change in total fluorescence; inactive = total fluorescence flat and polarisation flat or rising; no compound was filed as active; the % refers to the polarisation; negative = inhibition;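 further: % of control where 0% means no effect; inhibitors lower the polarisation; unlabelled MLL peptide was the positive control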
TRPML1 inh – human mucolipin-1 channel inhibition. Q9GZU1. TRPML1-inducible cells, Ca2+ dye fluorescence, FDSS; stronger effect = lower value; inhibition of EC80 agonist-evoked calcium signal. activity change, negative = inhibition, % (no concentration beside the values). 390,000 tested, 0.02% active. AID 624415; in the data active means activity change below about -50%; inconclusive means about -30% to -50%; inactive means above about -30%;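 further: stimulus is agonist 54-4 at its EC80 concentration; on the % scale 0 is the no-effect control and ±100 the full control effect; compound concentration not given in the record; the text of the record puts the active cut at -80%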
Target sequence (Q9GZU1 whole entry, looked up): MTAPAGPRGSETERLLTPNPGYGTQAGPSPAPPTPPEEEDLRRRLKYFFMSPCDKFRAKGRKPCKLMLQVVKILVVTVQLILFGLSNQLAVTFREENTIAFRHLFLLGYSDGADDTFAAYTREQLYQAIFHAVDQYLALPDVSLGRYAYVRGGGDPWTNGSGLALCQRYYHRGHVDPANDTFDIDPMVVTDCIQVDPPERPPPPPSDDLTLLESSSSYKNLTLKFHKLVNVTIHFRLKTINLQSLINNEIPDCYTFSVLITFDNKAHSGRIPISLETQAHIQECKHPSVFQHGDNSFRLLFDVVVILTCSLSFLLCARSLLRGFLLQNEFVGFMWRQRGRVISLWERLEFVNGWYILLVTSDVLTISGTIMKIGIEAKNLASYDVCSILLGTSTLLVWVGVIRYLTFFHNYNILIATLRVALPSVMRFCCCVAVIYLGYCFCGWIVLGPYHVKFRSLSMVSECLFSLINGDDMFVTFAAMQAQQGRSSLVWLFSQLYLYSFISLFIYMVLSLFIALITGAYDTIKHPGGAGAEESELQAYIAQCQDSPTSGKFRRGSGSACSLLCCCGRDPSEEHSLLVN
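TRPML1-DL cells, Tet-induced overnight (~16 h, 37 °C) at 1,500 cells/well, were loaded with Ca8 no-wash dye plus quencher for 45-90 min at room temperature. Compounds were pinned during FDSS kinetic reading; agonist 54-4 at EC80 (4 uM final) then added.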
TRPML1 agonist – activates the human TRPML1 channel; TRPML1-expressing cells, Ca2+ dye fluorescence, FDSS; host cell line not named in the record; reference of the full effect not given here; activation, % (no concentration beside the values); 410,000 tested, 0.12% active; AID 624414; in the data active = activation above about 50%; inconclusive = about 30% to 50%; inactive = below about 30%; further: 0% is about no effect; the text of the record puts the active cut at 80%
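Agonist activity was taken from a 110 s kinetic Ca2+ dye read on the FDSS after pinning compounds onto TRPML1-DL cells. The cells were seeded at 1,500/well with Tet inducer, incubated about 16 h, then dye-loaded at room temperature.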
TRPV1 PAM – enhances activation of the human vanilloid receptor TRPV1. 320,000 tested, 0.02% active. TRPV1-expressing cells, Fluo-8 calcium influx, capsaicin EC20 potentiation; host cell line not named in the record; control for the full effect not named in the record. Q8NER1. potentiation, % at 8.33 µM; active means potentiation above 80%; inconclusive means 30% to 80%; inactive means below 30%; further: 0% is about no effect
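Cells expressing TRPV1 were dye-loaded with Fluo-8 and read kinetically: 10 s baseline, 3 min after compound (agonist portion), then 2 min after EC20 capsaicin (allosteric enhancer portion). Calcium-bound dye fluorescence at 480/520 nm.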
Sfp PPTase inh – Sfp phosphopantetheinyl transferase inhibition; AID 1490; Potency, µM, for the others: max response, negative = inhibition, usual class: inhibitors; Biochemical Sfp PPTase activity, qHTS; 310,000 tested, 3.5% active; active means well fitted inhibition curve with a large enough effect; inconclusive means small, poorly fitted or top-dose-only effect, or another doubt; inactive means no such curve, though single readings can be large or run the other way;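 further: the enzyme is Sfp with the accession as filed and its product quenches rhodamine fluorescence; potency means the concentration at half of the fitted maximal effect; 0% = enzyme reaction without inhibitor and -100% = no enzyme wells; top concentration of the series not given in the record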
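Sfp 15 nM + cpd, 15 min RT; start w/ rhodamine-CoA 5 uM, BHQ-2-YbbR 12.5 uM (final); 50 mM Hepes pH 7.6, 10 mM MgCl2, 0.01% NP-40, 0.01% BSA; read 525/598 nm at 0 and 30 min.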
PINK1 modulator – PINK1 expression modulation; Potency, µM (series often up to 76.6 µM), for the others: at the top dose activation (PINK1 increase), most hits filed as activators; AID 624263; PINK1 immunofluorescence, high-content cytometry, 24 h; 410,000 tested, 0.2% active; active = well fitted activation curve with a large enough effect; inconclusive = small, poorly fitted or top-dose-only effect; inactive = flat fitted curve, though single readings scatter; cell line not stated here;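 further: potency means the concentration at half of the fitted maximal effect; % of control where 0% means no effect; nearly all actives have a fitted effect of over 65% in size; a mitochondrial uncoupler was the plate control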
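Stable cell line, 250 cells/well, 12 h attachment; compounds pinned at 5 concentrations, 24 h; CCCP control. Fixed with nuclear dye, primary antibodies 12 h at 10 degrees C, secondary plus cell stain; laser-scanning cytometer read.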
ClpP mod – qHTS Assay for Activators of ClpP. 340,000 tested, 1.9% active. Potency, µM (highest dose often 57.5 µM), without a hit: top-dose activity change, negative = active. purified B. subtilis ClpP, FRET peptide cleavage, 20 min; active = well fitted falling curve with a large enough effect; inconclusive = small, poorly fitted or top-dose-only effect; inactive = no such curve, though single readings can be large or run the other way; further: potency means the concentration at half of the fitted maximal effect; the source files actives as falling curves though it sought activators and does not explain the sign; nearly all actives have a fitted effect of over 65% in size; many hits overshoot -100%
Target sequence (P80244 whole entry, looked up): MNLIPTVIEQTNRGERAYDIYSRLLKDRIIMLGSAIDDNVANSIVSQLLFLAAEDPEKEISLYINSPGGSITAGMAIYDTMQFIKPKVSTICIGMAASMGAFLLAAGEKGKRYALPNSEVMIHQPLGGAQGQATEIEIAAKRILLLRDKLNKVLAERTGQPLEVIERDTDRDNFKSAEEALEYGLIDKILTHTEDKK
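FRET quenching reversal measured ClpP activation: 10 microg/mL B. subtilis ClpP at pH 8 with the FRET-FV decapeptide, read at 430 nm after 320 nm excitation. The 20-min minus 0-min signal was scaled between DMSO/no-enzyme wells and ADEP (5.8 microM final).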
Numbers without * were called inactive; ? = inconclusive; . = not tested or not shown; [ ] = dose if it differs, or a comment.

No.	SMILES	Menin MLL FP FL	TRPML1 inh	TRPML1 agonist	TRPV1 PAM	Sfp PPTase inh	PINK1 modulator	ClpP mod
1	OC[C@@H]1CN(CCN2CCOCC2)C[C@H](n2cnc3c(NC4CC4)ncnc32)O1	.	12	-0.3	.	.	0.8%	-1.1%
2	CC(C)CNS(=O)(=O)c1ccc(CCC(=O)NCC2CCCO2)cc1 (configuration not stated)	0.9	2	-0.8	1	-20%	1.6%	-1.4%
3	CSc1nc(/C=C2\C=Nc3ccccc32)c(O)n1C	19	0	2.8	-5	18%	4.7%	1.5%
4	Cc1sc2nc(C)n(/N=C/c3ccc(O)cc3)c(=O)c2c1C	-0.8	-13	0.5	-9	-2%	.	0.4%
5	CCOc1ccc(C(=O)NNC(=O)CCNC(=O)c2ccco2)cc1OC	.	5	0.2	0	.	-2.4%	.
6	CCSc1nnc(NC(=O)C2CC(=O)N(Cc3ccccc3)C2)s1 (configuration not stated)	-0.2	18	0.0	3	14%	-1.3%	.
7	Fc1cccc(Cc2c(-c3cccc(Br)c3)nc3ccc(Br)cn23)c1	.	0	-0.1	.	.	3.6%	-0.6%
8	CCOC(=O)N1CCN(Cc2nnc(-c3cccc(Br)c3)o2)CC1	-6.1	.	.	2	-1%	-0.3%	0.9%
9	CCOC(=O)N1CCN(Cc2nc3cc([N+](=O)[O-])ccc3n2C(C)C)CC1	.	4	-0.4	.	.	2.7%	-0.7%
10	CC(C)(C)OC(=O)C[C@@H]1C/C=C\C[C@@H](CC(=O)N(CCO)Cc2ccccc2)C(=O)N2CCC[C@@H]2COC1=O	.	-4	-0.4	.	.	0.4%	0.6%
11	CCOc1cc(-c2cn(S(=O)(=O)c3cccc4nsnc34)nc2N)cc(OCC)c1OCC	-0.2	28	1.3	10	6%	12%[38.3 µM]	-0.4%
12	Cc1occc1C(=O)N/N=C/c1cccnc1	3.3	-16	0.7	.	21%	0.7%[38.3 µM]	-0.4%
13	COc1ccc(Cc2c(-c3cccc(Cl)c3)nc3ccc(C)cn23)c(C)c1	.	.	-0.1	.	.	30%	?
14	CCOC(=O)C1=C(CNC2CCCCC2)NC(=O)NC1c1cc(C)ccc1C (configuration not stated)	7.2	27	-0.1	-11	-7%	5.3%	?
15	CCNC(=O)C1(C)CCN(C(=O)c2ccc(C(=O)OC)cc2)C1 (configuration not stated)	.	1	0.2	.	.	1.7%	2.1%
16	O=S(=O)(Nc1cccc(-n2cnnn2)c1)c1cccc(Cl)c1	.	-13	0.2	3	1%	0.1%	.
17	CCOc1cccc(C2C=C(c3ccc4c(c3)OCO4)NC(c3ccccc3Cl)N2)c1O (configuration not stated)	.	.	1.9	.	.	-0.1%	1.8%
18	Cc1cc(N2CCCC2)nc(N2C3CCC2CC(O)(c2ccc(F)cc2)C3)n1 (configuration not stated)	-3.3	.	.	-6	3%	.	.
19	CN(CC(=O)Nc1c(Cl)cccc1Cl)C(=O)CNC(=O)c1ccc2ccccc2c1	.	3	0.2	10	.	2.6%	-13%
20	O=C1Nc2ccccc2C12OCC(COc1ccc(Cl)cc1)O2 (configuration not stated)	2.5	3	-0.1	5	9%	1.5%	-1.6%
21	O=C(CN1CCc2ccccc2C1)Nc1cc(S(=O)(=O)N2CCOCC2)ccc1N1CCCC1	7.7	11	0.8	21	-14%	2.7%	-4.4%
22	Cc1ccc(OCC(=O)NCc2ccco2)c([N+](=O)[O-])n1	-2.9	-18	0.0	4	-3%	3.8%	.
23	COc1cc(/C=C/C(=O)OCC(=O)N2CC3(C)CC2CC(C)(C)C3)ccc1O (configuration not stated)	.	-9	0.0	-18	5%	0.4%	-7.4%
24	COc1ccccc1N1CCN(C(=O)c2ccccc2SCC(=O)N2CCCC2)CC1	.	-6	-0.6	9	.	1.3%	-5.5%
25	Cn1cccc1Cc1nnc(SCC(=O)Nc2ccc(Cl)cc2)n1-c1ccc(F)cc1	-1.6	-2	0.3	1	-3%	1.0%	18%
26	Fc1cccc(CCN2C(=S)NC[C@@H]2Cc2ccccc2)c1	0.7	19	-0.5	4	15%	0.1%	-0.3%
27	CCCCNS(=O)(=O)c1ccc(S(=O)(=O)N2CCC3(CC2)OCCO3)cc1	0.3	6	0.3	-8	-4%	-1.6%	-0.6%
28	CC(OC(=O)c1ccc([N+](=O)[O-])o1)C(=O)Nc1nc(-c2ccc(F)c(F)c2)cs1 (configuration not stated)	.	11	1.1	3	.	1.7%	1.0%
29	COc1ccc(Cl)cc1NC(=O)CN(C)C(=O)Cn1[nH]c(=O)c2ccccc2c1=O	.	-7	3.7	10	.	1.4%	-3.4%
30	COc1cc(N=CC2=C(O)c3ccccc3C2=O)cc(OC)c1	0.5	-24	0.6	1	5%	7.1%	-2.9%
31	Cc1cccc(-c2nc(C#N)c(NCc3ccco3)o2)c1	5.4	-16	2.4	20	-5%	-1.4%	3.5%
32	CCOc1cccc(-c2c(C(=O)N/N=C/c3ccsc3)nnn2-c2nonc2N)c1	.	-7	-1.3	-5	10%	-0.3%	-3.9%
33	CCOC(=O)N1CCN(C(=O)CCCCCn2c(=S)[nH]c3cc4c(cc3c2=O)OCO4)CC1	0.0	-14	1.7	?	9%	3.0%	0.6%
34	Cc1cc(C(=O)N2CCC2(C)C(=O)NS(=O)(=O)c2cccc(Cl)c2)nn1C (configuration not stated)	.	.	-1.0	.	.	-0.3%	1.3%
35	Cc1c([N+](=O)[O-])oc2c1C(=O)NCCC2	.	1	0.2	.	.	-1.7%	-0.4%
36	O=C(COC(=O)c1ccccc1C(=O)c1ccc(Cl)cc1)NCC1CCCO1 (configuration not stated)	-8.4	-9	0.0	-8	23%	-0.5%	.
37	CC1(C)C2CCC(CN)C1C2 (configuration not stated)	.	-2	-0.1	.	.	0.7%	-1.3%
38	CN(CC(=O)Nc1ccccc1Br)CC(=O)NC(c1ccccc1)c1ccccc1	.	15	5.3	-13	.	-0.6%	.
39	O=c1oc2ccc3ccccc3c2cc1-c1nnc(Nc2cccc(F)c2)s1	.	-7	-0.1	.	.	2.6%	1.1%
40	CCOC(=O)C1=NOC2COC3(CCN(c4ncccn4)CC3)OCC12 (configuration not stated)	0.7	-7	1.1	26	5%	-2.5%	.
41	Cc1ccc(CSc2nnc(-n3c(=O)c(C#N)cc4c(=O)n5cc(C)ccc5nc43)s2)cc1	.	-10	1.7	.	.	-0.3%	?
42	CC(C)(C)C(=O)Nc1ccc(N2CCN(C(=O)c3cccs3)CC2)cc1	.	29	-0.2	.	.	2.8%	0.5%
43	O=C(COC(=O)/C=C/c1ccc2c(c1)OCO2)NC1CCS(=O)(=O)C1 (configuration not stated)	12	-19	-0.1	-2	8%	-0.7%	2.9%
44	CC(CCc1ccccc1)NCc1ccc(Cl)cc1Cl (configuration not stated)	1.6	16	-0.1	-15	-19%	12%	2.3%
45	CC(=O)N(c1ccc2ccccc2c1)C1SC(=O)N(c2cccc(C)c2)C1=O (configuration not stated)	.	.	0.0	.	.	-0.2%	2.9%
46	Cc1cccc(NCc2nc(-c3ccccc3)no2)c1	-0.4	7	0.1	-14	-6%	16%	-0.1%
47	CC(C)(C)S(=O)N1Cc2cc(C(=O)NCC(F)(F)F)nc(-c3cccc(-c4cccc(F)c4)c3)c2[C@@H]1CCO (some centres not stated)	.	-6	-0.2	.	.	-0.4%	0.0%
48	CCOC(=O)C1=C(C)NC(=O)NC1C1CC=CCC1 (configuration not stated)	-1.8	0	0.4	-4	13%	0.5%	0.8%
49	CCc1cc2c(NCC3CCCO3)nc(C)nc2s1 (configuration not stated)	-2.2	5	-1.5	3	9%	-1.7%	-20%
50	CCn1c2ccccc2c2cc(NC(=O)CSc3nnc(-c4cccc(C)c4)o3)ccc21	-0.4	1	-1.5	-2	13%	3.3%	-3.7%

New compounds follow:
No.	SMILES	Menin MLL FP FL	TRPML1 inh	TRPML1 agonist	TRPV1 PAM	Sfp PPTase inh	PINK1 modulator	ClpP mod
51	O=C(CN1CCCCCC1)N/N=C/c1cccc(Cl)c1Cl	.	14	0.1	4	-20%	4.0%	-0.8%
52	CCOc1ccccc1C(=O)N[C@H](C(=O)Nc1ccc(OC)c(S(=O)(=O)N2CCOCC2)c1)C(C)C	2.3	4	-0.1	23	-1%	1.0%	-0.1%
53	Cc1ccccc1CSCC(Nc1ccc(C(=O)O)cc1[N+](=O)[O-])C(=O)O (configuration not stated)	0.8	0	0.5	-1	14%	-2.5%[38.3 µM]	-2.6%
54	COc1ccc(-c2nc3sc(CCNC(=O)C(=O)Nc4ccc(C)cc4C)c(C)n3n2)cc1	.	1	3.6	.	.	-0.8%	-1.8%
55	Cc1cc(C(=O)Nc2c(F)c(F)c(F)c(F)c2F)n(-c2ccccc2)n1	-0.1	2	-0.5	-7	5%	2.8%	.
56	CCCCc1nc(C(N)=O)c2[nH]c(=O)n(-c3ccccc3F)c2n1	4.6	14	1.9	-11	15%	1.4%	1.4%
57	Cc1ccc(O)c(CNc2cccc(C)n2)c1	-4.7	18	1.3	?	3%	2.2%	-0.9%
58	CC(C)(C)NC(=O)CN(C(=O)CS(=O)CC(=O)Nc1ccc(F)cc1)c1ccc2c(c1)OCCO2 (configuration not stated)	-1.5	-7	0.8	11	7%	2.0%	-1.0%
59	CCOC(=O)c1ccc(N2C(=O)c3n[nH]c(C)c3C2c2ccc(O)cc2)cc1 (configuration not stated)	-5.8	2	-0.6	7	12%	-0.5%[38.3 µM]	2.0%
60	O=C(CSc1n[nH]c(=O)n1Cc1ccccc1)Nc1ccc(N2CCOCC2)cc1	.	14	0.3	?	.	2.6%	-1.0%

High-throughput results: PubChem, National Center for Advancing Translational Sciences (NCATS)

Random draw from the library; about 4.4% have a hit in one of these screens.
